# High-throughput results from PubChem.
# Rango complex inh: prevents formation of the Rango-importin beta complex | Q14974 | Rango CFP/YFP FRET sensor + importin beta, 45 min | Potency, µM (series often up to 92.2 µM), for inactives: at the top dose inhibition of complex formation | 340,000 compounds, 0.031% hits | AID 540263; active = rising FRET ratio curve, often small or poorly fitted; inconclusive = mostly compound fluorescence or quenching in the first reads; inactive = flat curves in all reads;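 note: potency is the fitted concentration of half-maximal effect; 0% = DMSO wells and 100% = buffer wells lacking importin beta; nearly all actives have a fitted effect of over 15% in size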
# Target sequence (Q14974 whole entry, looked up): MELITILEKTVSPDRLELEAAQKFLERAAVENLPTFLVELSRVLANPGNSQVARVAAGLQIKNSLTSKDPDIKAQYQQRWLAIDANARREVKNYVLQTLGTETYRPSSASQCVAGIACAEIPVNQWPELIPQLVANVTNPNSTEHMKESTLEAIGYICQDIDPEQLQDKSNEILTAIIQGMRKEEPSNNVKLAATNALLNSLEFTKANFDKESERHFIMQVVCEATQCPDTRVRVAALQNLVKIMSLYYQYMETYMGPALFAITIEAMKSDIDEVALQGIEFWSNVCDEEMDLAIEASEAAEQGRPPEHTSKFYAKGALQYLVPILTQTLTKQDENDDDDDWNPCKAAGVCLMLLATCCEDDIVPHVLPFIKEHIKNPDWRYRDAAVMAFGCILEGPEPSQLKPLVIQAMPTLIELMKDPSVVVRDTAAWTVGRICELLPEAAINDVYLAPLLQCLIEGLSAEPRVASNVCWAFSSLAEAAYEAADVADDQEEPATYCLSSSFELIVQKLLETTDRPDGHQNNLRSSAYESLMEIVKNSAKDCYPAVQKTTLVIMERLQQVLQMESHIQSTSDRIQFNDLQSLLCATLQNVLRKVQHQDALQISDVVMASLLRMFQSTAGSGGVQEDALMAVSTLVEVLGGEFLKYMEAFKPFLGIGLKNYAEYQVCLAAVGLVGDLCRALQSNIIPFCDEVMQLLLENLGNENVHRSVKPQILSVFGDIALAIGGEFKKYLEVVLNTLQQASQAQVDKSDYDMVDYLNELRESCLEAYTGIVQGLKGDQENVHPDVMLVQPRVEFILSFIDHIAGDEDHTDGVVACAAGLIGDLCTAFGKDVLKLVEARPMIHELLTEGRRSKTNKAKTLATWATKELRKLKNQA
#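 Inhibition scored from the CFP 486 nm/YFP 530 nm FRET ratio 45 min after adding 0.125 microM importin beta to 50 nM Rango biosensor preincubated 5 min with compound (room temperature, PBS with DTT, Tween-20, BSA). No-importin wells as positive control.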
# miR-21 reporter: miR-21 reporter, rising signal. 340,000 tested, under 10 active. HeLa miR-21 FLuc reporter, luciferase, 48 h. Potency, µM (series often up to 38.3 µM), for inactives: at the top dose reporter change, positive = more light. AID 2288; active = well fitted rising curve with a large enough effect; inconclusive = small, poorly fitted or top-dose-only effect; inactive = no such curve, though single readings can be large or run the other way;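 note: % of control where 0% means no effect; miR-21 action dims this reporter so a rising signal means less miR-21 action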
#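 HeLa cells endogenously expressing miR-21, stably carrying CMV-driven firefly luciferase with a downstream miR-21 binding site, 2000 cells/well. Titrations up to approximately 40 uM, 48 hours; luciferase luminescence read.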
# GLA inh pH 4.5: alpha-galactosidase A (human) inhibition, pH 4.5; purified enzyme, 4-MU-alpha-Gal fluorescence, pH 4.5; P06280; activity change, negative = inhibition, % at 105 µM; 230,000 tested, under 10 active; inconclusive = small, poorly fitted or top-dose-only inhibition, or a rising curve; inactive = flat fitted curve, though single readings scatter; no compound was filed as active;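 note: 0% = full activity with enzyme and -100% = basal without enzyme; dose as in the result columns while the protocol names 77 µM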
# Rango release inh: inhibitors of RanGTP-induced Rango-importin beta complex dissociation; O95149+P62826; Biochemical FRET Rango-importin beta, RanGTP-induced dissociation; Potency, µM (doses to about 46.1 µM), for inactives: at the highest dose activity change, negative = inhibition; 340,000 compounds, 0.071% hits; AID 540253; active means falling FRET ratio curve, often poorly fitted, with flat reads before Ran was added; inconclusive means other falling curves, or compound fluorescence or quenching; inactive means flat or rising ratio curve;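 note: potency is the fitted concentration of half-maximal effect; % of control where 0% means no effect; nearly all actives have a fitted effect of over 45% in size; -100% = wells without RanGTP and RCC1; the record marks most hits as doubtful in a second field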
#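 Rango FRET biosensor (snurportin-1 IBB flanked by N-terminal EYFP and C-terminal CFP10) at 0.1 uM, with 0.25 uM importin beta in PBS, 1mM DTT, 0.02% Tween-20, 0.1% BSA. 0.6 uM Ran, 2mM GTP and 0.2 uM RCC1 were then added for 45 min at room temperature. Inhibition read as loss of FRET rise.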
# Active calls of the source: *; ? = inconclusive; nt = not tested or not shown; & = joins results of further samples. These rows are one share of the data; count on the stated rates, not on these rows.
SMILES,Rango complex inh,miR-21 reporter,GLA inh pH 4.5,Rango release inh
CC(C)CC(=O)Nc1cccc(-c2csc(-c3ccccc3)n2)c1,-2.6%,-4%,-21,-12%
COc1cccc(NC(=O)CCc2nnc3ccc(N4CCC(C)CC4)nn23)c1,-1.3%,-6%,nt,4%
N#CCC(=O)N/N=C/c1cn(Cc2cccc3ccccc23)c2ccccc12,?,0%,6,-18%
O=C(COC(=O)c1cccc(S(=O)(=O)NCc2ccccc2)c1)c1ccc2c(c1)OCCO2,-1.0%,20%,1,4%
Cc1ccc(CN(Cc2cc3cc(C)ccc3[nH]c2=O)C(=O)N2CCOCC2)cc1,9.0%,2%,-4,1%
C=CCn1c(-c2c(C)nc3cc(C)ccn23)n[nH]c1=S,-4.5%,5%,-10,-3%
N#C/C(=C/c1ccc(N2CCOCC2)o1)C(=O)N1CCOCC1,?,-7%,-16,?
CCOC(=O)C1(CC2CCCCO2)CCN(C2CCSCC2)CC1 (stereo not given),-0.8%,-1%,7,3%
Cc1ccc2c(CC(=O)Nc3cccc(S(=O)(=O)N4CCOCC4)c3)coc2c1,2.0%,-14%,-10,2%
COCCN(Cc1ccccc1)C(=O)c1ccc(C(=O)c2ccccc2)cc1,3.7%,nt,nt,1%
O=C(NCCCc1ccc(F)cc1)C1CCC(=O)N(CCN2CCOCC2)C1 (stereo not given),6.7%,2%,nt,45%
COc1cc(C(c2nnnn2C2CCCC2)N2CCN(C)CC2)cc(OC)c1OC (stereo not given),-3.4%,-8%,0,3%
O=C(NC(=S)NC(c1ccccc1)c1ccncc1)c1ccccc1 (stereo not given),-0.5%,15%,-1,-12%
O=C(Nc1ccccc1Oc1ccccc1)c1cnccn1,-2.0%,-10%,1,18%
CCOC(=O)c1cc2c(ccn2-c2ccc(F)cc2)n1CC(=O)NC(C)(C)C,nt,0%,-10,nt
Cc1ccc(NC(=S)NC(=O)c2cccs2)cc1F,4.9%,nt,nt,18%
O=C(CCN1C(=O)C2CCCCC2C1=O)Nc1nc2ccc(F)cc2s1 (stereo not given),?,nt,nt,-12%
Cc1ccc(CNC(=O)CCCn2nc(C)n3ccnc3c2=O)cc1,-1.6%,-3%,nt,1%
Cc1cc(C)c(S(=O)(=O)N(C)CC(=O)NC2CCCC2)c(C)c1,2.1%,-7%,-2,1%
CCC(C)[C@H](N)c1cn([C@@H](Cc2cc3ccccc3[nH]2)C(=O)N2CCNCC2)nn1 (stereo not given in full),0.7%,-2%,-2,-12%
Cc1ccc(-c2nnc(Cc3ccc([N+](=O)[O-])cc3)o2)cc1,-3.4%,-42%,0,1%
Cc1c(NC(=O)C(C)OC(=O)c2cc3c4ccccc4n(C)c3s2)c(=O)n(-c2ccccc2)n1C (stereo not given),-1.3%,-7%,-2,-19%
COc1ccc(-n2c(-c3ccc(Cl)cc3Cl)n[nH]c2=S)c(OC)c1,-2.7%,-1%,nt,4%
Cc1cc2nccc(-c3ccco3)n2n1,?,1%,5,-21%
CCOCc1cc(=O)[nH]c(SC)n1,1.8%,-1%,1,-2%

# (listing goes on)
SMILES,Rango complex inh,miR-21 reporter,GLA inh pH 4.5,Rango release inh
Cc1cc(C(=O)CCl)c(C)n1CCc1ccc(Cl)cc1,1.3%,23%,-6,13%
COc1ccc(OC)c(NC(=O)C2COc3ccccc3O2)c1 (stereo not given),-0.1%,-31%,1,-6%
Cc1nnc2n(Cc3ccccc3)c(=O)c3c4c(sc3n12)CCCC4,nt,-1%,-3,nt
O=C(Nc1ccccc1)c1nc[nH]c1C(=O)NCCCCCCNC(=O)c1[nH]cnc1C(=O)Nc1ccccc1,-2.1%,nt,nt,24%
COc1ccc(CN(C)CC(=O)Nc2ccc(Cl)cc2C(F)(F)F)c(OC)c1,2.5%,-8%,3,22%
CC(=O)Nc1ccc(S(=O)(=O)Oc2cccc(N3C(=O)C4CC=CCC4C3=O)c2)cc1 (stereo not given),?,9%,0,-5%
Cn1c(=O)oc2cc(S(=O)(=O)N3CCN(c4ccccn4)CC3)ccc21,0.6%,1%,4,8%
CCOC(=O)c1cccc(NC(=O)CSc2nnc(COc3ccccc3C)o2)c1,0.4%,0%,4,-2%
O=C(Nc1cc(NC(=O)c2ccccc2F)ccc1Cl)c1ccccc1,-0.6%,-17%,nt,-1%
FC(F)(F)c1cccc(-c2cc(C3CCNCC3)[nH]n2)c1,-1.1%,-20%,nt,-9%
CC1CCC2(CC1)NC(CO)(CO)CO2 (stereo not given),2.1%,-10%,-3,-1%
CC(C)C1CC(c2csc(N)n2)CCO1 (stereo not given),0.5%,-2%,1,-5%
C=C(C)C1Cc2c(C)nn(-c3cccc4ccccc34)c2C1 (stereo not given),5.9%,3%,0,14%
O=C(Nc1ccccc1Cl)C1CCN(S(=O)(=O)c2cccc3nonc23)CC1,-0.6%,2%,nt,2%
N#Cc1ccc(COC(=O)c2cnc3ccccc3n2)cc1,-0.3%,-4%,nt,14%
COc1ccc(N(CC(=O)N2CCCCC2)S(=O)(=O)c2c(C)nn(C)c2C)cc1,?,-2%,-4,5%
Cc1nc2nc3c(c(=O)n2[nH]1)CCCC3,4.6%,0%,3,12%
COc1cc(NS(=O)(=O)c2csc(C(N)=O)c2)cc(OC)c1,3.7%,3%,nt,0%
O=c1[nH]c(CN2CCN(c3ccc(F)cc3)CC2)nc2ccccc12,-2.1%,-5%,-7,3%
CCOC(=O)C(C#N)(Cc1ccc2ccccc2n1)Cc1ccc2ccccc2n1,-0.1%,nt,nt,-10%
CC12CCC(=O)N1C(C(=O)Nc1cccc(F)c1)CS2 (stereo not given),0.0%,1%,nt,-6%
COC(=O)[C@H](Cc1ccccc1)N(Cc1ccccc1)S(=O)(=O)N(Cc1ccccc1)[C@@H](Cc1ccccc1)C(=O)OC,-0.8%,nt,nt,8%
COc1cc(Cn2c(C(=O)O)cc3sccc32)cc(OC)c1OC,?,-2%,2,7%
O=C(NCc1ccccc1F)c1ccc(S(=O)(=O)NCc2ccco2)cc1,-1.3%,nt,nt,-16%
CCCCC[C@H](O)/C=C/[C@@H]1[C@@H](C/C=C\CCCC(=O)OC)[C@@H](O)C[C@H]1O,1.7%,-13%,nt,5%

# Continued.
SMILES,Rango complex inh,miR-21 reporter,GLA inh pH 4.5,Rango release inh
Cn1c(SCC(=O)NCCc2ccccc2)nnc1-c1ccco1,-0.1%,-2%,4,-15%
CC1CCN(c2nc3c(c(=O)[nH]c(=O)n3C)n2CC(C)CSc2nnnn2-c2ccccc2)CC1 (stereo not given),-2.1%,-6%,1,2%
COC/C=C/C1=CC2=CC(=O)C(C)(OC(=O)c3cnc4ccccc4n3)C(=O)C2=CN1Cc1ccccc1 (stereo not given),?,-6%,8&-8,2%
Cc1cccn2c(=O)c(/C=C(\C#N)S(=O)(=O)c3ccccc3)c(N3CCCCC3)nc12,?,-4%,-2,?
Cc1ccc2oc(C(=O)Nc3ccc(S(=O)(=O)Nc4onc(C)c4C)cc3)cc(=O)c2c1,-0.6%,2%&2%,nt,7%
O=C1C=C(c2cccc(Cl)c2)C[C@@H](c2ccc(Cl)cc2)C1,1.0%,nt,nt,4%
CCN1C(=O)C(CC(=O)Nc2ccc(OC)cc2)N(Cc2ccc(OC)c(OC)c2)C1=S (stereo not given),9.8%,3%,2,20%
COc1ccccc1NS(=O)(=O)c1cc(C(=O)NCC(c2cccs2)N2CCOCC2)ccc1C (stereo not given),1.1%,nt,nt,3%
Cc1ccc(S(=O)(=O)N2CCCCC2)cc1C(=O)Nc1ccccn1,-2.7%,-3%,nt,-3%
COc1ccc(S(=O)(=O)N2CCn3c2nc2ccccc23)cc1,-2.6%,-7%,-18,0%
COc1ccc(CCNC(=O)CCc2nnc(Cc3ccc4c(c3)OCO4)o2)cc1,1.2%,-6%,nt,-15%
Cc1noc(C)c1C(=O)N(C)CC(=O)Nc1ccc(F)c(F)c1F,2.7%,nt,nt,2%
CCn1ncc([N+](=O)[O-])c1C(=O)Nc1cc(C)on1,?,5%,-6,2%
C#CCSc1nsc(SCC#C)c1C#N,-1.0%,?,5,9%
COCCN(C(=O)C1CCC1)c1c(N)n(CC(C)C)c(=O)[nH]c1=O,-3.0%,nt,nt,1%
COc1ccc(Cc2nnc(NC(=O)c3ccccc3F)s2)cc1OC,2.6%,-3%,nt,-4%
CC(C)(C)NC(=O)c1cc(NC(=O)c2ccco2)cc(NC(=O)c2ccco2)c1,-1.5%,4%,-2,-10%
CCOc1ccccc1CNCc1ccc(C(=O)O)cc1,-0.4%,-1%,-1,8%
Cc1ccc(N(Cc2cc3ccc(C)cc3[nH]c2=O)C(=O)c2ccco2)c(C)c1,0.5%,-1%,-3,1%
Cc1ccc(CNS(=O)(=O)c2c(C(=O)N3CCCCC3)c(C)n(C)c2C)o1,1.0%,1%,nt,-1%
O=C(CSc1nnc2ccccn12)N1CCOCC1,-2.9%,-9%,0,-4%
N#C/C(=C(/O)COC(=O)c1ccc2c(c1)OCCO2)c1nc2ccccc2[nH]1,?,-8%,4,-18%
Fc1ccc(-n2cc(CNCCc3cccnc3)c(-c3ccccc3Cl)n2)cc1,1.1%,-1%,6,-8%
CCOC(=O)c1ccc(S(=O)(=O)N2CCN(C3CC(=O)N(c4ccc(OC)cc4)C3=O)CC2)cc1 (stereo not given),0.8%,nt,nt,-5%
NC(=O)CN1C(=O)C(=O)N(Cc2ccc(Cl)cc2)C1=O,1.1%,-2%,nt,6%

# Next records.
SMILES,Rango complex inh,miR-21 reporter,GLA inh pH 4.5,Rango release inh
C/C(=N\NC(=O)c1ccc(-c2ccccc2)cc1)c1ccco1,-3.0%,-37%,nt,0%
CCCCCC(=O)Nc1nc(C)c(-c2csc(Nc3cc(Cl)ccc3C)n2)s1,0.7%,-3%,-1,-4%
CCOC(=O)CC(NS(=O)(=O)c1ccc2[nH]cc(C(=O)O)c(=O)c2c1)c1ccc(OCC)c(OC)c1 (stereo not given),-0.9%,0%,nt,2%
CC(C)NC(=O)C12CC3CC(C1)CC(C(=O)NC(C)C)(C3)C2,-2.4%,-3%,-1,-7%
O=c1[nH][nH]c(-c2ccccc2)c1C=Nc1cccc(Cl)c1,0.6%,-4%,-23,1%
CCCNC(=O)N1CCC(c2ccc3c(c2)OCO3)CC1,5.4%,-6%,nt,13%
O=C(CCn1nnc2ccccc21)OCC(=O)c1ccc(F)cc1,2.6%,-2%,nt,-4%
COc1ccc(/C=C/c2c(-c3ccc(OC)cc3)sc3cc(OC)c(OC)cc23)cc1,-1.9%,nt,nt,-2%
COc1cccc(C(=O)NCCN2CCN(c3ccccc3)CC2)c1,-1.5%,-3%,nt,0%
N#CC1=C(SCC(N)=O)NC2=C(C(=O)c3ccccc32)C1c1ccc(Cl)cc1 (stereo not given),?,-23%,-24,-21%
CCOC(=O)c1[nH]ncc1CN1CCCC(C(=O)c2ccc(SC)cc2)C1 (stereo not given),2.9%,-2%,-1,34%
CC1=C(C)N(C)[C@H](c2ccccc2Br)[C@H](O)C1=O,-0.6%,nt,nt,-1%
COc1ccccc1NC(=O)Nc1ccnn1C1CCN(C(=O)c2cscn2)CC1,?,-30%,nt,?
CCn1c(SCc2nc(-c3ccccc3)no2)nnc1-c1ccco1,-1.9%,-13%,-13,4%
Cc1ccccc1OCCC(=O)OCC(=O)Nc1c(F)cccc1F,3.3%,nt,nt,0%
CCCCN1C=C(C(=O)c2ccccc2)C(=O)CC1,2.8%,nt,nt,-3%
CCOc1ccc(NC(=O)CNC(=O)c2ccco2)cc1,-3.9%,-27%,nt,9%
CCCCCCN1CC(O)=C(c2ccccc2)C1=N,-0.8%,-8%,8,17%
